Pin1 inhibitor: blocks the human prolyl isomerase Pin1; Q13526; Pin1 FP peptide displacement, HiFluor488, 10 min; Potency, µM (highest dose often 115 µM), without a hit: at the highest dose activity, negative = inhibition, hits mostly inhibitors; 390,000 compounds, 0.009% hits; active means well fitted inhibition curve with a large enough effect in the polarisation, with a control signal flat, not every such curve was filed as active; inconclusive means small, poorly fitted or top-dose-only effect, or effect the other way, or a change in a side signal; inactive means no such curve, though single readings can be large or run the other way; the % refers to the polarisation; further: potency means the concentration at half of the fitted maximal effect; on the % scale 0 is the no-effect control and ±100 the full control effect
Target sequence (Q13526 whole entry, looked up): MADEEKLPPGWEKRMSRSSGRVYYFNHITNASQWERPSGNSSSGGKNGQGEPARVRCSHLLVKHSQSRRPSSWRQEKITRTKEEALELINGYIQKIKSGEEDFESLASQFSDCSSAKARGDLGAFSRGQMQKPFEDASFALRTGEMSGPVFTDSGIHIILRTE
D2 ag: D2 dopamine receptor (human) agonism. P14416. HEK293 T-REx D2 cells, calcium flux agonist mode. activation, % at 2 µM. 340,000 compounds, 0.53% hits. AID 485358;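 active means activation over 3 SD above normal in the single-dose calcium agonist read, cut at about 30% in these data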; further: 0% is about no effect
Target sequence (P14416 whole entry, looked up): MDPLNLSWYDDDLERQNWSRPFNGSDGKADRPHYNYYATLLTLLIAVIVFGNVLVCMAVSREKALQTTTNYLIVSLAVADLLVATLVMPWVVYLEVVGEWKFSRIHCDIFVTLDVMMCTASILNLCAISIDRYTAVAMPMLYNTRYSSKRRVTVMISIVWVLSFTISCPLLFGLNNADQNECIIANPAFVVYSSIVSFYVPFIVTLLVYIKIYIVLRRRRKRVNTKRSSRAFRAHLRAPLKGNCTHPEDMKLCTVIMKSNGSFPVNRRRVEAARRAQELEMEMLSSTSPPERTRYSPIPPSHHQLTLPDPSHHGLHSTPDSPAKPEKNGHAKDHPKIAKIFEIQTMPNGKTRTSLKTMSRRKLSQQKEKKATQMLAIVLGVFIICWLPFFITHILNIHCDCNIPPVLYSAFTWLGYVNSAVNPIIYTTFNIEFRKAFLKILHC
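Calcium-flux readout, 1 cycle/sec over 180 s following compound pin transfer, in inducible HEK293 Trex D2 cells (force-coupled); dopamine controls included. Positive calcium responses during this window marked compounds as potential agonists.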
TrxR1 substrate: rat thioredoxin reductase 1 substrate activity. Potency, µM (top dose mostly 114 µM), for the others: at the top dose activity change, negative = substrate turnover. purified TrxR1 substrate turnover, NADPH consumption readout. O89049. 390,000 compounds, 0.01% hits; further: potency means the concentration at half of the fitted maximal effect; on the % scale 0 is the no-effect control and ±100 the full control effect; nearly all actives have a fitted effect of over 50% in size
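Rat TrxR1, dispensed at 90 nM, was prereduced with 400 uM NADPH (final) for 5 min at ~22 deg C, then incubated with compound 15 min before 400 uM selenite. A first-read NADPH fluorescence drop versus no-compound background flagged substrates.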
rTrxR1 inhibitor: rat TrxR1 inhibition | O89049 | recombinant rTrxR1, NADPH fluorescence consumption, selenite substrate | Potency, µM (highest dose often 114 µM), without a hit: at the highest dose activity change, negative = inhibition, hits mostly inhibitors | 390,000 compounds, 1% hits | AID 588453; further: potency means the concentration at half of the fitted maximal effect; on the % scale 0 is the no-effect control and ±100 the full control effect; nearly all actives have a fitted effect of over 65% in size
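Rat TrxR1 (90 nM in the dispensed reagent) was pre-reduced with 400 uM NADPH for 5 min at room temperature, then incubated with compound for 15 min. After 400 uM selenite was added, NADPH fluorescence (Ex 340/Em 450 nm) was followed for 8 min.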
USP1-UAF1 inh: USP1/UAF1 (human) deubiquitinase inhibition. recombinant USP1/UAF1, Ub-Rhodamine cleavage fluorescence. Potency, µM (series often up to 57.1 µM), for the others: top-dose activity change, negative = inhibition, usual class: inhibitors. 390,000 compounds, 0.23% hits. AID 743255; further: potency means the concentration at half of the fitted maximal effect; on the % scale 0 is the no-effect control and ±100 the full control effect; nearly all actives have a fitted effect of over 60% in size; inactives centre near -12
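1 nM enzyme complex + cpd, 15 min RT; start with Ub-Rho 150nM final; kinetic fluorescence ex 480/em 540, 6 reads q60 s. Buffer 50mM HEPES pH 7.8, 0.5mM EDTA, 0.1 mg/ml BSA, 1mM TCEP, 0.01% Tween-20.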
D2 antag: antagonizes the human D2 dopamine receptor; P14416; HEK293 TREx D2 cells, calcium flux, dopamine EC80; inhibition, % at 10 µM; 340,000 compounds, 2% hits; in the data active means inhibition above about 30%; further: 0% is about no effect
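Tetracycline-induced HEK293 TREx cells expressing D2 receptor forced-coupled to calcium signalling, loaded with no-wash calcium dye. Compounds added and calcium flux read 180 s, then dopamine added at EC80 and read a further 180 s.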
IDH1 R132H inh: inhibitors of human mutant IDH1 R132H | O75874 | IDH1-R132H enzyme, NADPH consumption, diaphorase/resazurin fluorescence | 390,000 compounds, 0.093% hits | AID 602179 | Potency, µM (series often up to 76.6 µM), for the others: at the top dose activity change, negative = inhibition, actives largely listed as inhibitors; further: potency means the concentration at half of the fitted maximal effect; on the % scale 0 is the no-effect control and ±100 the full control effect; nearly all actives have a fitted effect of over 65% in size
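IDH1-R132H (0.5 ug/mL dispensed) in pH 7.5 Tris buffer was preincubated 30 min with compound, then given a substrate mix of 0.016 mM NADPH and 2 mM alpha-KG for 80 min at room temperature; remaining NADPH was read by diaphorase/resazurin fluorescence.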
* marks the source's active call; other numbers are inactive results; ? = inconclusive; . = no result given; & = joins results of further samples; [ ] = another dose, or the depositor's remark. Unless noted, the call rests on the fitted dose curve; in most records, active means well fitted inhibition curve with a large enough effect; inconclusive means small, poorly fitted or top-dose-only effect; inactive means no such curve, though single readings can be large or run the other way. A portion of the library; count on the stated rates, not on these rows.

SMILES | Pin1 inhibitor | D2 ag | TrxR1 substrate | rTrxR1 inhibitor | USP1-UAF1 inh | D2 antag | IDH1 R132H inh
COC1=C[C@@H]2[C@@H]3Cc4ccc(OC)c(O)c4[C@]2(CCN3C)CC1=O | 6.2% | . | -2.1% | -6.6% | 10.8% | . | 20.7%
CO[C@H]1CC=C2CCN3CCC4=C(CC(=O)OC4)[C@]23C1 | -6.5% | 0.7 | 7.5%[57.1 µM] | 14.6%[57.1 µM] | -18.9% | -2.2 | 36.2%[activator]
C=CCOC(=O)c1ccccc1N | -2.2% | -1.3 | 35.0%[activator] | 6.8% | -2.1% | 1.9 | -10.7%
c1ccc(-c2ccc(C(c3ccccc3)n3ccnc3)cc2)cc1 (stereo not given) | -0.8% | 1.9&0.4 | -7.2% | 2.8% | -16.0% | 10.8&-13.9 | ?
CCOC(=O)c1ncn2c1CN(C)C(=O)c1cc(F)ccc1-2 | 3.1% | 0.4&1.1 | ? | -1.4%[57.1 µM] | -2.7% | -3.6&8.7 | 17.3%
C[N+]1(C)C2CC[C@H]1CC(OC(=O)C(CO)c1ccccc1)C2 (stereo not given in full) | 10.0% | -1.0 | -1.8% | 9.3% | -26.8% | 13.0 | 8.9%
Cc1ccccc1N | -0.6% | 0.8 | 10.8% | 30.6% | -21.0% | 9.6 | 9.7%
C[N+]1(C)C2CCC1CC(OC(=O)C(CO)c1ccccc1)C2 (stereo not given) | -0.9% | . | 4.4%[57.1 µM] | 5.5%[57.1 µM] | -23.4% | . | 7.3%
CN1C2CC(OC(=O)C(CO)c3ccccc3)CC1C1OC12 (stereo not given) | -2.0%&-11.4%&1.9% | -0.2&-0.2&-0.4 | 1.9%&-4.2%&3.3% | 3.7%&1.1%&-7.7%&8.8% | ? | 2.8&6.6&-10.9 | 9.4%&0.4%&-5.8%
CCOC(=O)c1cn2nc(OP(=S)(OCC)OCC)cc2nc1C | -2.5% | -0.9 | -8.0% | 2.1% | -13.4% | 0.3 | 8.2%
CC12CCC3C(CCC4=C(O)C(=O)CCC43C)C1CCC2=O (stereo not given) | . | . | 8.1%[57.1 µM] | 16.5%[57.1 µM] | . | . | .
CC[N+](C)(C)c1cccc(O)c1 | -1.9% | 0.6 | -2.9%[57.1 µM] | ? | -17.3% | -33.0 | 0.8%
C[C@]12CC[C@H](O)C[C@@H]1CC[C@@H]1[C@@H]2CC[C@]2(C)C(=O)CC[C@@H]12 | -8.8% | -0.9 | 7.6% | 26.8% | -10.2% | -11.6 | -3.0%
C[N+]1(C)[C@@H]2CC[C@H]1CC(OC(=O)C(CO)c1ccccc1)C2 (stereo not given in full) | 6.8% | 0.7&0.3 | 1.5% | 9.2% | -25.4% | -23.8&-14.0 | -1.4%
COC1=CC2[C@@H]3Cc4ccc(OC)c(O)c4[C@]2(CCN3C)CC1=O (stereo not given in full) | 3.1% | . | 1.4% | 10.3% | -12.8% | . | -7.6%
CON(C)C(=O)Nc1ccc(Cl)cc1 | 5.9% | -0.6 | 2.5% | 8.7% | -10.1% | 1.3 | 2.8%
C[C@]12CC[C@@H](O)C[C@@H]1CC[C@@H]1[C@@H]2CC[C@]2(C)C(=O)CC[C@@H]12 | -8.6% | 0.5 | 0.9% | 0.4% | -6.6% | -19.5 | 6.2%
O=[N+]([O-])c1cc(Cl)c(Cl)cc1Cl | -6.0% | -0.2 | 5.1% | 24.6% | -19.9% | 5.1 | -10.4%
NN=C(N)N | 3.5% | -0.1 | -3.6%[57.1 µM] | -10.1%[57.1 µM] | -25.3% | -6.8 | -8.0%
C[C@]12CCC3[C@@H](CC[C@H]4C[C@@H](O)CC[C@]34C)C1CCC2=O (stereo not given in full) | 2.3% | -1.7 | -0.8% | 6.8% | -12.5% | -2.1 | 2.4%

Already shown: an excerpt of the list.
SMILES | Pin1 inhibitor | D2 ag | TrxR1 substrate | rTrxR1 inhibitor | USP1-UAF1 inh | D2 antag | IDH1 R132H inh
COC1=C[C@@H]2[C@@H]3Cc4ccc(OC)c(O)c4[C@]2(CCN3C)CC1=O | 6.2% | . | -2.1% | -6.6% | 10.8% | . | 20.7%
CO[C@H]1CC=C2CCN3CCC4=C(CC(=O)OC4)[C@]23C1 | -6.5% | 0.7 | 7.5%[57.1 µM] | 14.6%[57.1 µM] | -18.9% | -2.2 | 36.2%[activator]

The list goes on:
SMILES | Pin1 inhibitor | D2 ag | TrxR1 substrate | rTrxR1 inhibitor | USP1-UAF1 inh | D2 antag | IDH1 R132H inh
C[C@]12CCC3C(CC[C@H]4C[C@@H](O)CC[C@]34C)C1CCC2=O (stereo not given in full) | -1.6% | . | -2.8%[11.4 µM] | -0.5%[11.4 µM] | -4.0% | . | 2.0%
C[C@]12CC[C@H](O)CC1=CC[C@@H]1[C@@H]2CC[C@]2(C)C(=O)CC[C@@H]12 | -14.3% | . | 8.8% | 28.2% | -17.5% | . | 5.2%
C[C@H](O)[C@H]1CC[C@H]2[C@@H]3CCC4=CC(=O)CC[C@]4(C)[C@H]3CC[C@]12C | -4.7% | -2.7 | 0.6% | 6.7% | -36.0% | 14.9 | 1.2%
O=C1CCCN1c1ccc(S(=O)(=O)O)cc1 (tested in a mixture with another compound) | -4.9% | 0.7 | 6.2% | 10.4% | -3.3% | -5.8 | 3.8%
CCCCCCC(=O)c1c(O)n(-c2ccccc2OC)c(=O)[nH]c1=O | 0.1% | -0.6 | 2.6% | 12.5% | -16.8% | -7.0 | 5.8%
CCCCCCC(=O)c1c(O)n(-c2ccccc2OC)c(=O)[nH]c1=O (tested in a mixture with another compound) | -7.7% | -0.5 | 13.1%[57.1 µM] | 22.6%[57.1 µM] | 5.2% | -8.4 | 1.7%
C[N+]1(C)C2CC(OC(=O)[C@H](CO)c3ccccc3)CC1C1OC12 (stereo not given in full) | 0.9% | . | 10.9%[57.1 µM] | 21.1%[57.1 µM] | 5.9% | . | -0.5%
Cc1cc(C(C)(C)C)cc(C)c1CC1=NCCN1 | 1.5% | 23.2 | ? | ? | -12.7% | 50.1* | 8.0%

Arranged by length of the SMILES (smallest number first): 13 of the compounds above.
SMILES | Pin1 inhibitor | D2 ag | TrxR1 substrate | rTrxR1 inhibitor | USP1-UAF1 inh | D2 antag | IDH1 R132H inh
NN=C(N)N | 3.5% | -0.1 | -3.6%[57.1 µM] | -10.1%[57.1 µM] | -25.3% | -6.8 | -8.0%
CON(C)C(=O)Nc1ccc(Cl)cc1 | 5.9% | -0.6 | 2.5% | 8.7% | -10.1% | 1.3 | 2.8%
O=C1CCCN1c1ccc(S(=O)(=O)O)cc1 (tested in a mixture with another compound) | -4.9% | 0.7 | 6.2% | 10.4% | -3.3% | -5.8 | 3.8%
O=[N+]([O-])c1cc(Cl)c(Cl)cc1Cl | -6.0% | -0.2 | 5.1% | 24.6% | -19.9% | 5.1 | -10.4%
Cc1cc(C(C)(C)C)cc(C)c1CC1=NCCN1 | 1.5% | 23.2 | ? | ? | -12.7% | 50.1* | 8.0%
CCCCCCC(=O)c1c(O)n(-c2ccccc2OC)c(=O)[nH]c1=O | 0.1% | -0.6 | 2.6% | 12.5% | -16.8% | -7.0 | 5.8%
C[N+]1(C)C2CC(OC(=O)[C@H](CO)c3ccccc3)CC1C1OC12 (stereo not given in full) | 0.9% | . | 10.9%[57.1 µM] | 21.1%[57.1 µM] | 5.9% | . | -0.5%
COC1=CC2[C@@H]3Cc4ccc(OC)c(O)c4[C@]2(CCN3C)CC1=O (stereo not given in full) | 3.1% | . | 1.4% | 10.3% | -12.8% | . | -7.6%
C[C@]12CCC3C(CC[C@H]4C[C@@H](O)CC[C@]34C)C1CCC2=O (stereo not given in full) | -1.6% | . | -2.8%[11.4 µM] | -0.5%[11.4 µM] | -4.0% | . | 2.0%
C[C@]12CCC3[C@@H](CC[C@H]4C[C@@H](O)CC[C@]34C)C1CCC2=O (stereo not given in full) | 2.3% | -1.7 | -0.8% | 6.8% | -12.5% | -2.1 | 2.4%
C[C@]12CC[C@H](O)CC1=CC[C@@H]1[C@@H]2CC[C@]2(C)C(=O)CC[C@@H]12 | -14.3% | . | 8.8% | 28.2% | -17.5% | . | 5.2%
C[C@]12CC[C@H](O)C[C@@H]1CC[C@@H]1[C@@H]2CC[C@]2(C)C(=O)CC[C@@H]12 | -8.8% | -0.9 | 7.6% | 26.8% | -10.2% | -11.6 | -3.0%
C[C@]12CC[C@@H](O)C[C@@H]1CC[C@@H]1[C@@H]2CC[C@]2(C)C(=O)CC[C@@H]12 | -8.6% | 0.5 | 0.9% | 0.4% | -6.6% | -19.5 | 6.2%
